Source: PubChem BioAssay
HPGD block – blocks human HPGD enzyme activity | P15428 | purified HPGD, NADH fluorescence kinetic, PGE2 substrate | 150,000 tested, 4.3% active | AID 894 | Potency, µM, inactives show at the highest dose activity change, negative = inhibition, actives largely listed as inhibitors; active = well fitted inhibition curve with a large enough effect (not every such curve was filed as active); inconclusive = small, poorly fitted or top-dose-only effect, or another doubt; inactive = no such curve, though single readings can be large or run the other way;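 note: top concentration of the series not given in the record; plate controls included wells without enzyme; inactives centre near -10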
Target sequence (P15428 whole entry, looked up): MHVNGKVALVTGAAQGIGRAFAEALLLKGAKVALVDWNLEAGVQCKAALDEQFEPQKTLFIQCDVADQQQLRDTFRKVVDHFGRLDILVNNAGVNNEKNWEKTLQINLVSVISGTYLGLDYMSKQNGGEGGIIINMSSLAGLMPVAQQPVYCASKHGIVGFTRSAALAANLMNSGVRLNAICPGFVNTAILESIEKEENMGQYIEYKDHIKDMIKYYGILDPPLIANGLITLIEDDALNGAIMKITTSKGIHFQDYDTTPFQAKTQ
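20 nM HPGD preincubated 15 min at room temperature with compound in 50 mM Tris-HCl pH 8, 0.01% Tween 20. Started with 1 mM NAD+ and 30 uM prostaglandin E2; NADH fluorescence (360/450 nm) read 5 times over 30-s intervals, last minus first.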
The depositor's hits bear a star; ? = inconclusive. % is set by controls: 0 for no effect and ±100 for the full control effect; potency is the fitted concentration of half-maximal effect. Not all compounds are listed; count on the stated rates, not on these rows.

Structure | HPGD block
O=C(Cc1cccs1)Nc1nc2c(s1)CCCC2 | -13.2%
Cc1nc2ccccc2nc(C)c1=NOCc1ccc(C#N)cc1 | -14.9%
COC(=O)c1sccc1NC(=O)CSc1ccccc1NS(=O)(=O)c1ccc(Br)cc1 | -2.8%
Cc1ccc(NC(=S)NCc2ccc3c(c2)OCO3)c(C)c1 | -12.0%
COc1ccc(N(CC(=O)NC2CCCCC2)C(=O)CNC(=O)c2ccco2)c(OC)c1 | -5.3%
COc1ccc(C)cc1S(=O)(=O)N(CC(=O)O)c1ccccc1 | 4.3%
COc1ccc(CCNC(=O)CSc2nn(-c3ccccc3)c(=S)s2)cc1OC | -6.2%
CCOP(=O)(c1ccccc1)C1(O)CCCCC1 (stereo unspecified) | -11.4%
CCNC(=O)C1CCCN1S(=O)(=O)c1ccc(C)cc1 (stereo unspecified) | -15.2%
Cc1cc(Br)c(S(=O)(=O)NCCN2CCOCC2)cc1C | 0.3%
Cc1ccccc1C(C(=O)NCc1ccccc1)N(Cc1ccco1)C(=O)c1ccccn1 (stereo unspecified) | -7.8%
C/C(=N/NC(=O)c1cccs1)c1ccc(NC(=O)COc2ccc(Cl)cc2)cc1 | -14.2%
Cc1ccc(S(=O)(=O)Cn2nnnc2C(C(C)C)N2CCN(c3nc4ccccc4s3)CC2)cc1 (stereo unspecified) | -13.0%
NC(=O)CCN1CCN(CCOC2Cc3cc(Cl)ccc3Sc3ccccc32)CC1 (stereo unspecified) | -1.8%
COc1ccc(Cn2c(=O)[nH]c3cc(C(=O)Nc4ccc(N5CCN(C)CC5)cc4)ccc32)cc1 | ?

A different layout for some results above:
HPGD block,Structure
-12.0%,Cc1ccc(NC(=S)NCc2ccc3c(c2)OCO3)c(C)c1
-7.8%,Cc1ccccc1C(C(=O)NCc1ccccc1)N(Cc1ccco1)C(=O)c1ccccn1 (stereo unspecified)

Next structures follow.
Structure | HPGD block
CCOc1ccc2nc(NCCNC(=O)CC)c(C#N)cc2c1 | ?
Cc1cc(=O)oc(C)c1C(=O)NCc1ccco1 | -23.1%
Cc1c(C(Nc2ccccn2)c2ccccc2)c(=O)n(-c2ccccc2)n1C (stereo unspecified) | -11.2%
CSc1nc(C)cc(Oc2ccc(=O)n(C)n2)n1 | -3.1%
Cn1c2ccccc2c2c(C(=O)O)cn(C3CCCC3)c(=O)c21 | ?
OC(COCC(F)(F)C(F)(F)C(F)(F)C(F)F)Cn1c2ccc(Cl)cc2c2cc(Cl)ccc21 (stereo unspecified) | -9.4%
Cc1scc(C(=O)N/N=C/c2ccc(OCC(C)C)cc2)c1C | -9.1%
CC(C)(C)NC(=O)C(c1ccco1)N(C(=O)c1ccc(CN2CCOCC2)o1)c1ccccc1 (stereo unspecified) | -7.0%
COc1ccc(NC(=O)CC2C(=O)N(c3ccc(Cl)cc3)C(=S)N2CCc2ccccn2)cc1 (stereo unspecified) | -18.7%
COc1c(C)cccc1C(=O)Nc1ccc(CN2CCCCC2)cc1 | -15.3%
CCOC(=O)c1c(C)n(C)c2ccc(OC)c(NS(=O)(=O)c3ccc(Cl)s3)c12 | -13.7%
Cc1nn(-c2ccccc2)c(N)c1C(c1ccc(C(C)C)cc1)c1c(C)nn(-c2ccccc2)c1N | -6.5%
CCn1c2ccccc2c2cc(N=C3SC(CC(=O)Nc4ccccc4)C(=O)N3C)ccc21 (stereo unspecified) | -4.1%
S=c1[nH]nc(C2CCCCC2)n1/N=C/C(Cl)=C\c1ccccc1 | -27.5%
CC(c1ccccc1)N1CC(C(=O)NC2CCCC2)CC1=O (stereo unspecified) | -14.5%

(more compounds)
Structure | HPGD block
COc1cc2nc(SCC(N)=O)n(CCC3=CCCCC3)c(=O)c2cc1OC | -7.3%
N#Cc1ccc(CSCC(=O)O)cc1 | -10.8%
O=c1c2ccccc2sn1-c1cc(S(=O)(=O)N2CCOCC2)ccc1N1CCOCC1 | 0.794µM*
CN(C)C(CNC(=O)C1CCCN(C(=O)c2ccc(Cl)cc2)C1)c1ccco1 (stereo unspecified) | -7.9%
O=C(Nc1ccc(Br)cc1)c1ccc(F)c(S(=O)(=O)NCc2cccs2)c1 | -11.8%
Cc1ccc(/C=c2\sc3nc(-c4ccco4)nn3c2=O)o1 | 17.8µM*
CCOc1ccccc1N(C(=O)c1snc(C(N)=O)c1N)C(C(=O)NC1CCCC1)c1ccco1 (stereo unspecified) | -29.3%
COc1ccc(N(CC(=O)NC2CCCC2)C(=O)Cn2nnc(-c3ccc(C)cc3)n2)cc1 | 2.1%
CCCCNC(=O)C1COc2ccccc2O1 (stereo unspecified) | 15.8µM*
Cc1ccc(SC(=O)COc2ccccc2C)cc1 | -20.3%
COc1ccc(N(CC(=O)NCCSCc2c(F)cccc2Cl)S(C)(=O)=O)cc1OC | -5.3%
O=C(CC(c1ccco1)C1CCCCC1=O)c1ccco1 (stereo unspecified) | -0.7%
COc1cccc(/C=N/NC(=O)CO/N=C(\C)c2cccs2)c1OC | ?
Cc1ccc(-c2nnc3sc(-c4ccncc4)nn23)cc1 | -18.8%
Cc1cc(C(C)(C)C)oc1C(=O)Nc1ccc(CC(=O)O)cc1 | 0.2%

Continuation.
Structure | HPGD block
CCC1(C)Cc2c(sc3nc(SC)n(Cc4ccccc4)c(=O)c23)CO1 (stereo unspecified) | -6.3%
C=CCSc1nccc(=O)[nH]1 | -2.7%
O=C(O)C1CCCCC1C(=O)Nc1cc(Cl)ccc1Cl (stereo unspecified) | -8.8%
COc1cc2c(cc1OC)C(c1cc3cc4c(cc3[nH]c1=O)OCO4)N(C(=O)C1CC1)CC2 (stereo unspecified) | ?
COc1ccc(N2CCN(C(=O)NC3CCCCC3)CC2)cc1 | -12.4%
COc1cc(S(=O)(=O)n2nnc3ccccc32)c(OC)cc1Cl | -20.5%
O=C1c2ccccc2-c2c1cccc2C(=O)N1CCCCC1 | -0.1%
O=c1[nH]c(SCc2nc3c(cnn3-c3ccccc3)c(=O)[nH]2)nc2ccccc12 | 0.794µM*
Cc1ccc(OCc2nnc(NC(=O)Cc3cccs3)s2)cc1 | -12.2%
CCOC(=O)c1nc2cc3n(c(CC(C)C)c-2c1C)CC(C)=C3C | ?
O=C(Nc1ccc(N2CCCC2)c(Cl)c1)c1cccc(-c2cc3ccccc3oc2=O)c1 | -5.6%
CCN(CC)C(=O)C(C)N(C#N)c1nc(NC(C)C)nc(NC(C)C)n1 (stereo unspecified) | -8.2%
CC(C)Oc1cccc(C(=O)NC(=S)Nc2cccc(C(F)(F)F)c2)c1 | -21.9%
CC(C)(C)c1[nH]nc2c1C(Cc1ccccc1)C(C#N)=C(N)O2 (stereo unspecified) | -7.7%
CC(C)c1cccc(C(C)C)c1NC(=O)Cn1c(=O)cnc2ccccc21 | -13.4%

Further entries follow.
Structure | HPGD block
COc1ccc(C(=O)N2CCCCC2)cc1S(=O)(=O)Nc1ccccc1 | -9.6%
S=C(c1ccc2c(c1)OCO2)N1CCCCCC1 | ?
CCCn1nc(C(=O)NCCN2CCOCC2)c2ccccc2c1=O | -4.9%
CC(C)=CCCC1=CCC(/C=N/NC(N)=O)C(C)C1 (stereo unspecified) | -13.9%
COc1ccc(N=Cc2cccc(C)c2O)cc1Cl | -1.9%
CC1(CC(=O)N/N=C/c2ccc(OCc3ccc(Cl)cc3Cl)cc2)OCCCO1 | ?
CCN(CC)S(=O)(=O)c1ccc(OC)c(NC(=O)CSc2cc(Cl)ccc2Cl)c1 | -9.7%
CCOC(=O)c1ccc(N2C(=O)C3C(/C=C/c4ccccc4)OC4(C(=O)c5ccccc5C4=O)C3C2=O)cc1 (stereo unspecified) | -10.7%
O=S(=O)(NC1=NCCCCC1)c1ccc2ccccc2c1 | -14.9%
Cc1ccc(S(=O)(=O)NC2=NCN(CCN3CCOCC3)CN2)cc1 | -2.5%
C=CCc1cc(C)ccc1OCCCC(C(=O)OCC)C(=O)OCC | -7.7%
CCCC1C2CN(C(C)C)CC=C2C(C#N)=C(N)C1(C#N)C#N (stereo unspecified) | ?
CC1S/C(=N/N=C/c2ccco2)NC1=O (stereo unspecified) | -11.5%
CCn1c(-c2cc(OC)c(OC)c(OC)c2)n[nH]c1=S | -13.8%
CC(=O)OCC(=O)[C@@]1(OC(C)=O)[C@H](C)C[C@H]2[C@@H]3C[C@H](F)C4=CC(=O)C=C[C@@]4(C)[C@]3(F)[C@H](O)C[C@@]21C | -1.8%

More entries:
Structure | HPGD block
COC(=O)c1c(NC(=O)COC(=O)CNC(=O)c2ccco2)sc(C)c1C | -9.9%
Cc1nn(C(=O)c2ccco2)c(C)c1Br | -6.0%
CCCn1c(=O)c2ccccc2n2c(SCN3C(=O)c4ccccc4C3=O)nnc12 | -9.3%
COc1cccc(CN(C(=O)c2ccco2)C(C(=O)NC2CCCC2)c2cccnc2)c1 (stereo unspecified) | -4.0%
Cc1ccc(S(=O)(=O)N2CCC(=O)N(CCOCc3cccc(F)c3)CC2)cc1 | -2.0%
O=C(CCSCCC(=O)NCc1ccccc1)NCc1ccccc1 | -1.0%
Cc1c(C(=O)O)cccc1-c1ccc(C=O)o1 | ?
Cc1noc(C)c1S(=O)(=O)N1CCC(C(=O)NCCN2CCC(C)CC2)CC1 | -6.1%
CCOc1ncccc1C(=O)N(C)CC(=O)Nc1ccc(F)cc1 | 0.0%
COCc1cc(C)c2c(N)c(C#N)sc2n1 | ?
O=C(CN1CCN(c2ccccn2)CC1)Nc1ccccc1 | -20.2%
CSc1ccccc1NC(=O)c1cc(-c2cccs2)on1 | ?
CCC(C)[C@H](N)c1nnc(SCC(=O)c2ccc(Cl)cc2)o1 (stereo partly specified) | ?
COc1ccc(N2C(=O)CSC23C(=O)Nc2ccccc23)cc1OC (stereo unspecified) | -8.6%
O=C(O)COc1ccc(/C=N/n2cnc3scc(-c4cccs4)c3c2=O)cc1 | -23.0%

New compounds follow:
Structure | HPGD block
NC(=O)C1c2ccccc2CSc2ccccc21 (stereo unspecified) | -9.5%
CN=c1scc(-c2ccc(Br)cc2)n1C | -6.9%
COc1ccc(N(C(=O)c2ccco2)C(C(=O)NC2CCCC2)c2ccc(N(C)C)cc2)cc1OC (stereo unspecified) | -8.6%
CSc1ccc(CNc2ccc(C)c(C)c2)cc1 | -8.4%
O=c1c2cccc3c(N4CCOCC4)ccc(c32)c2nc3ccccc3n12 | -10.3%
COc1ccc(N2CCN(Cc3cc(=O)oc4cc(C)c(Cl)c(C)c34)CC2)cc1 | -11.2%
FC(F)(F)c1ccc(Oc2ccc3cc(Br)ccc3c2)nc1 | -9.8%
COc1ccc(C(=O)NC2CCN(C(=O)NC3CCCCC3)CC2)cc1 | -3.3%
CCOC(=O)C1CCN(C(=O)CC(NS(=O)(=O)c2ccc(OC)cc2)C(C)C)CC1 (stereo unspecified) | -12.6%
O=c1nc(-c2ccccc2)n(-c2ccccc2)[nH]1 | -14.5%
Cc1cc2c(c(=O)o1)C1(C(=O)N(C)c3ccccc31)C(C#N)=C(N)O2 (stereo unspecified) | -12.3%
Cc1ccccc1-c1nc(CS(=O)(=O)CC(=O)NCCN2CCOCC2)c(C)o1 | -7.7%
COc1ccccc1NC(=S)c1ccccc1 | 22.4µM*
O=C(c1cc2ccccc2o1)n1nnc2ccccc21 | -21.9%
O=C(CN1CCN(S(=O)(=O)c2ccccc2)CC1)Nc1ccc(N2CCOCC2)cc1 | -20.2%

Reprinted at random: four compounds from above
Structure | HPGD block
Cc1ccccc1-c1nc(CS(=O)(=O)CC(=O)NCCN2CCOCC2)c(C)o1 | -7.7%
O=c1nc(-c2ccccc2)n(-c2ccccc2)[nH]1 | -14.5%
O=C(c1cc2ccccc2o1)n1nnc2ccccc21 | -21.9%
O=c1c2cccc3c(N4CCOCC4)ccc(c32)c2nc3ccccc3n12 | -10.3%

Next structures.
Structure | HPGD block
CCOc1ccc(N2C(=O)CS/C2=C(\C(Cl)=C(Cl)Cl)[N+](=O)[O-])cc1 | -5.3%
Cc1sc2nc(SCc3nnc(-c4cccs4)o3)n(C3CCCC3)c(=O)c2c1C | ?
Cc1nc2cnc(Oc3cccc(Cl)c3)nc2n(CCC#N)c1=O | -14.9%
Cc1ccc(SCc2[nH]nc3c2C(c2cccnc2)C(C#N)=C(N)O3)cc1 (stereo unspecified) | -24.2%
CCC(C)NC(=O)c1ccccc1NC(=O)COc1ccc(OC)cc1 (stereo unspecified) | -8.5%
CC(C)OC(=O)CSc1nnc(-c2ccc(O)cc2)n1Cc1ccccc1 | -5.1%
CC(=O)c1cc(NC(=O)c2ccc(C)cc2)c(=O)oc1/C=C/N(C)C | -8.8%
CCCN(CCC)C(=O)Cn1c(=O)n(CCCCCC(=O)Nc2ccccc2)c(=O)c2sccc21 | -3.8%
Cc1ccc(-n2nc(C)c(NC(=O)CCl)c2C)cc1C | -14.6%
O=C(Cc1ccc(S(=O)(=O)N2CCOCC2)s1)Nc1ccc2c(c1)CCC2 | 2.2%
CC(C)Cc1cc(C(=O)O)n[nH]1 | -10.4%
CCn1c(CNc2nc(-c3ccccc3)cs2)nnc1SCC(=O)NCc1ccccc1 | -14.0%
Cc1nc2ccc(NC(=O)N(C)c3ccccc3)cc2s1 | -3.5%
COc1ccc(/C=N/NC(=O)c2ccn[nH]2)cc1COc1ccc(F)cc1 | -26.1%
Cc1nn(C)cc1C1C(C#N)=C(N)N(c2cccnc2)C2=C1C(=O)CCC2 (stereo unspecified) | -10.9%
O=C1CC(c2ccco2)Cc2nc(NCC3CCCO3)ncc21 (stereo unspecified) | -5.9%
CCC1=NC(c2ccc(OC)c(OC)c2)N(O)C1(C)C (stereo unspecified) | -5.0%
O=c1cc(/C=C/c2cccs2)[nH]c2ccccc12 | ?
